Resorufin fluor: compounds fluorescent in resorufin spectral region. Compound fluorescence, resorufin region 547/598 nm, buffer; hits give high values. max dye-equivalent concentration, M. 59,000 compounds, 0.04% hits. AID 588; active = above 10 nM dye equivalent; inconclusive = 1 to 10 nM; inactive = 1 nM or less; a few of its hits are not listed in these tables; note: highest value over a series up to 38 µM
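Tris 100 mM pH 8.0; compound added, 15 min RT; CCD imager read, ex 547 nm/em 598 nm; signal normalized to resorufin standard curve (six concentrations per plate) as dye-equivalent concentration.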
AID923: qHTS Assay for Allosteric/Competitive Inhibitors of Caspase-1: Spectroscopic Profiling in AFC Spectral Region. AID 923, 2007. compound fluorescence, AFC spectral region (405/520 nm); almost no hit is shown here. 75,000 compounds, 1.1% hits. Potency, µM (highest dose often 57.5 µM), without a hit: at the highest dose fluorescence increase, hits mostly activators; active = well fitted activation curve with a large enough effect; inconclusive = small, poorly fitted or top-dose-only effect;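 note: potency is the fitted concentration of half-maximal effect; 0% is about no effect; scaled to a free AFC standard on each plate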
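Titrations up to 57 uM read every 20 sec for 3 min (405/520 nm) with 50 nM caspase 1 and 5 uM Ac-WEHD-AFC, pH 7.5 HEPES buffer. Fluorescence-vs-time intercept gave baseline, scaled against on-plate AFC standard.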
A488 fluor: A488 region autofluorescence | compound autofluorescence, A488 spectral region, dye equivalency; hits give high values | max dye equivalency, M | 59,000 compounds, 0.1% hits; active = above 10 nM dye equivalent; inconclusive = 1 to 10 nM; inactive = 1 nM or less; about half of its hits are not listed in these tables;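 note: highest value over a series up to 38 µM; compound alone in buffer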
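Compounds pin-transferred into 100 mM Tris buffer, pH 8.0, incubated 15 min at room temperature, then imaged with 480 nm excitation/540 nm emission filters. Fluorescence converted to Alexa 488 dye-equivalent concentration via an on-plate six-point A488 standard curve.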
TSHR agonist: agonists of human thyroid stimulating hormone receptor | 73,000 compounds, 0.48% hits | P16473 | HEK293-CNG-TSHR cells (CNG channel as cAMP sensor), membrane potential dye, cAMP | Potency, µM (series often up to 57.1 µM), inactives show top-dose activation, usual class: activators | AID 926; active = well fitted activation curve of enough size with the parental cells flat; inconclusive = any curve in the parental cells; inactive = parental cells flat and receptor cells flat or falling; note: potency is the fitted concentration of half-maximal effect; % of control where 0% means no effect; weak receptor curves with flat parental cells got no call and are not listed
Target sequence (P16473 whole entry, looked up): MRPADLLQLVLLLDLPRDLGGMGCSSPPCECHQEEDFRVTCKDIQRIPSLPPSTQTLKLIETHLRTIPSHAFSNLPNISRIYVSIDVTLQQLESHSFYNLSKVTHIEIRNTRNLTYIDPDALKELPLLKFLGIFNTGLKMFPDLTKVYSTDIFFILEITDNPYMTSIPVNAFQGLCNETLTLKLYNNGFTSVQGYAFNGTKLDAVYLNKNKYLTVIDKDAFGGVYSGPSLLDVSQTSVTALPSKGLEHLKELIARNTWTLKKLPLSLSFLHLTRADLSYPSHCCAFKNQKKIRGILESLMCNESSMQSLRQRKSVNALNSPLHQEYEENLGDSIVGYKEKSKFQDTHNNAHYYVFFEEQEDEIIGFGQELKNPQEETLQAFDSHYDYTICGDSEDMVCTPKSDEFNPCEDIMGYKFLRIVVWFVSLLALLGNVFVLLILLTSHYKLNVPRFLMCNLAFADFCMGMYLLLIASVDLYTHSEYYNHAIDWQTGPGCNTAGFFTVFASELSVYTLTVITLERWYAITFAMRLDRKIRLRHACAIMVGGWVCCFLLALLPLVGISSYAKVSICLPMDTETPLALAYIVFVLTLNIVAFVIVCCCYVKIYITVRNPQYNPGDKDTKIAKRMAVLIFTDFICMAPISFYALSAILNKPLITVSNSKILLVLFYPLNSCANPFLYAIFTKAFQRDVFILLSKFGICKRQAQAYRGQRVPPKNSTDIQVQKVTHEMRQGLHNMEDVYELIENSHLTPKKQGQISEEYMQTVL
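cAMP rise detected as CNG-channel membrane depolarization by fluorescent dye (emission 590 nm), 30 min after compound, following 60 min dye loading containing 100 uM RO 20-1724 at room temperature. Cells: TSHR/CNG HEK 293, with parental CNG HEK 293 as control.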
A647 autofl: compound autofluorescence in A647 spectral region; max dye-equivalent concentration, M; 59,000 tested, under 10 active; AID 592; Compound fluorescence, A647 channel (570/671 nm), Tris buffer; active means above 1 µM dye equivalent; inconclusive means 0.1 to 1 µM; inactive means 0.1 µM or less;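 note: values scaled relative to a standard on each plate; highest value over a series up to 38 µM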
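Each compound's intrinsic fluorescence at 570 nm excitation and 671 nm emission is measured across its concentration series in 100 mM Tris, pH 8.0, after 15 min at room temperature, and reported relative to an A647 curve.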
An asterisk follows results filed as active; i = inactive; ? = inconclusive; nt = not tested or not shown; [ ] = dose if it differs, or a comment.

Each structure is followed by: Resorufin fluor	AID923	A488 fluor	TSHR agonist	A647 autofl
- O=C1CCCN1Cc1ncnn1-c1ccccc1
  i	-0.6%	i	6%[11.4 µM]	4.4e-08
- Cn1c(-c2ccccc2)cnc1SCc1nc2ccccc2c(=O)[nH]1
  i	0.3%	i	10%	1.6e-08
- COc1ccc(NC(=O)C2CC(=O)N(c3cc(C)ccc3C)C2)cc1 (stereo not drawn)
  i	-2.0%	i	0%	2.1e-08
- CC1(NC[C@@H](O)COc2cccc3[nH]ccc23)CCC(C(C)(C)NC(=O)CBr)CC1 (stereo partly drawn)
  i	nt	i	-4%	6.7e-09
- O=C(c1cc(Cl)ccc1Cl)N1CCOCC1
  nt	-0.6%	nt	2%	nt
- CCCNC(=O)OC[C@@H]1O[C@H](c2ccccc2)C=C[C@@H]1Oc1ccc(OC)cc1
  nt	-0.1%[11.5 µM]	nt	2%[11.4 µM]	nt
- O=C(Nc1cc(C(F)(F)F)ccc1F)C1CCC1
  i	6.2%	i	?	1e-09
- O=C(c1cccc(S(=O)(=O)N2CCCC2)c1)c1nnc(-c2ccncc2)o1
  i	-0.1%	i	-10%	5.3e-09
- CCOC(=O)Cn1c(CN(Cc2ccccc2)Cc2ccccc2)nc2c1c(=O)n(C)c(=O)n2C
  i	0.1%	i	?	4.5e-08
- Cc1ccc(C(C(=O)NCCc2ccccc2)N(C(=O)c2csnn2)C2CC2)o1 (stereo not drawn)
  i	-0.1%	i	3%	1.7e-08

Each structure is followed by: Resorufin fluor	AID923	A488 fluor	TSHR agonist	A647 autofl
- CCOC(=O)CCCc1sc(N)nc1-c1[nH]c(=O)[nH]c1C
  i	5.1%	i	-1%	3.1e-09
- CCCC/C=C/C(NC(=O)c1ccc(C(F)(F)F)cc1)c1ccccc1 (stereo not drawn)
  nt	-1.0%	nt	?	nt
- CC1(C)CC(=O)C(C=NCC2CCNCC2)=C(O)C1
  nt	-0.5%	nt	-3%	nt
- Cc1csc2nc(CNS(=O)(=O)c3cccnc3)cn12
  i	0.0%	i	-4%[11.4 µM]	2.4e-08
- COc1ccc(-n2c(SCC#N)nc3ccccc3c2=O)cc1
  nt	2.0%	nt	?	nt
- O=C(COc1ccccc1F)Nc1ccc(S(=O)(=O)NCc2ccco2)cc1
  i	-2.1%	i	-1%	3e-09
- Cc1ccc(S(=O)(=O)/C(C#N)=C/c2c(N3CCN(C)CC3)nc3ccccn3c2=O)cc1
  i	nt	i	nt	2.6e-08
- O/N=C1/CCCCc2sccc21
  nt	1.5%	nt	5%	nt
- COc1ccc(N2CCN(c3nc(NCCO)nc(N4CCOCC4)n3)CC2)cc1
  i	-1.6%	i	6%	4.1e-08
- Cc1nc2ccccc2c(=O)n1CC(=O)N1CCOCC1
  i	0.5%	i	-2%	1e-09

Each structure is followed by: Resorufin fluor	AID923	A488 fluor	TSHR agonist	A647 autofl
- COc1ccc(-n2nnc3c(SCC(=O)NCc4ccco4)ncnc32)cc1
  nt	1.2%	nt	6%	nt
- c1cncc(CNc2nc(-c3ccc4c(c3)OCO4)nc3ccccc23)c1
  i	-2.2%	i	nt	2.9e-09
- CCOc1ccc(N(CC(=O)NCC2CCCO2)S(=O)(=O)c2ccc(OC)c(OC)c2)cc1 (stereo not drawn)
  nt	-1.1%	nt	2%	nt
- COc1ccc(OCC(O)Cn2c(=N)n(CCN3CCOCC3)c3ccccc32)cc1 (stereo not drawn)
  i	-0.9%	i	-4%[11.4 µM]	3.6e-09
- CCOc1ccc(N(CC(=O)NCc2cccc(OC)c2)S(=O)(=O)c2c(C)noc2C)cc1
  i	-1.6%	i	30%	2.7e-08
- COC(=O)c1sccc1NC(=O)C1C2C=CC(O2)C1C(=O)O (stereo not drawn)
  i	-1.0%	i	-12%	2.2e-09
- C#CCNc1nc(C)nc2c1nnn2Cc1ccccc1F
  i	-0.9%	i	1%	1e-09
- CN1CCN(C(=O)C2CCC(CNS(=O)(=O)c3cccc4cccnc34)CC2)CC1 (stereo not drawn)
  nt	3.6%	nt	4%	nt
- CC(C)NC(=O)C1CCN(C(=O)C(C(=O)c2ccccc2)n2cc(Cl)ccc2=O)CC1 (stereo not drawn)
  i	1.9%	i	?	3.6e-08
- CCOc1ccc(C(CC(=O)O)NS(=O)(=O)c2ccc(C)cc2)cc1OC (stereo not drawn)
  i	-0.9%	i	-1%[11.4 µM]	2.1e-08

Copied from the list.
COc1ccc(-n2nnc3c(SCC(=O)NCc4ccco4)ncnc32)cc1 @ TSHR agonist = 6%
C#CCNc1nc(C)nc2c1nnn2Cc1ccccc1F @ TSHR agonist = 1%

New compounds follow.
Each structure is followed by: Resorufin fluor	AID923	A488 fluor	TSHR agonist	A647 autofl
- CCOC(=O)c1sc(NC(=O)c2cc(S(=O)(=O)N3CCOCC3)ccc2C)nc1C
  i	-1.5%	i	1%[11.4 µM]	9.6e-09
- Nc1nc(CSCc2ccccc2)nc(N2CCOCC2)n1
  i	0.7%	i	5%	1e-09
- O=C(NCCN1CCN(c2ccccc2)CC1)c1cccn2c(=O)c3ccccc3nc12
  i	9.9%	i	?	1e-09
- COCCCn1c(SCC(=O)N2CCc3ccccc32)nnc1-c1ccoc1C
  i	1.7%	i	-2%	1.8e-08
- O=C(Nc1ccccc1)N1CCCC2(CCN(C(=O)c3cnccn3)CC2)C1
  i	3.5%	i	-4%	1.8e-09
- O=C1c2ccccc2C(=O)N1CCc1nc2ccccc2c(=O)n1-c1ccccn1
  i	-4.4%	i	19%	5.3e-09
- O=C(O)c1ccc(CS(=O)(=O)c2cccc(C(F)(F)F)c2)o1
  i	0.9%	i	6%	1.5e-08
- O=C(c1ccco1)N1CCN(C(c2ccccc2Cl)c2nnnn2CC2CCCO2)CC1 (stereo not drawn)
  i	-0.7%	i	-5%[11.4 µM]	4.2e-09
- O=C(CN1CCN(S(=O)(=O)c2ccc(Br)cc2)CC1)Nc1ccc2c(c1)OCCO2
  nt	4.1%	nt	26%	nt
- Cc1c(NC(=O)Nc2ccccc2Cl)sc(=S)n1C
  nt	0.8%	nt	?	nt

Each structure is followed by: Resorufin fluor	AID923	A488 fluor	TSHR agonist	A647 autofl
- CC1(C)Cc2c(sc(/N=C/N3CCOCC3)c2C#N)C(C)(C)N1
  nt	-1.4%	nt	3%	nt
- O=C(NCc1cccs1)O[C@H]1C[C@H]2CC[C@@H]1C2
  i	2.7%[11.5 µM]	i	-5%[11.4 µM]	3.4e-08
- CCN1CCN(CC(=O)Nc2ccc(Cl)c(Cl)c2)C(=O)C1=O
  nt	-0.5%	nt	-1%	nt
- Cc1ccc(-c2nnc(CSc3nnc(COc4ccccc4)n3-c3ccc(C)cc3)o2)cc1
  i	1.1%	i	?	2.1e-08
- NC(=O)NC1CCCc2c1[nH]c1ccc(Cl)cc21 (stereo not drawn)
  nt	-2.9%	nt	-5%	nt
- OCC(CO)(CO)n1cnnn1
  i	1.6%	i	7%	4.2e-08
- CC(=O)OC[C@@H]1O[C@@H](O/N=C2/C[C@@H](O)[C@@H](O)[C@@H]3[C@@H]4C(=O)N(C(C)(C)C)C(=O)[C@H]4CC[C@H]23)[C@H](OC(C)=O)[C@H](OC(C)=O)[C@@H]1OC(C)=O
  nt	-0.8%[11.5 µM]	nt	-3%[11.4 µM]	nt
- CCOC(=O)C1=C(C)N=C2SCCC(=O)N2C1c1sccc1C (stereo not drawn)
  i	0.9%	i	13%	3.9e-09
- OCCSCc1ccccc1
  i	-2.0%[11.5 µM]	i	-2%[11.4 µM]	4.1e-08
- Cn1c(-n2c(-c3ccco3)nc3ccccc3c2=O)nc2ccccc21
  i	nt	i	nt	1.4e-09

Each structure is followed by: Resorufin fluor	AID923	A488 fluor	TSHR agonist	A647 autofl
- O=C1c2oc3ccccc3c(=O)c2C(c2cccc(O)c2)N1CCCN1CCOCC1 (stereo not drawn)
  nt	1.0%	nt	-4%	nt
- Cn1c(=O)c2c(nc(Sc3nc4ccccc4n3CC(=O)N3CCCCC3)n2C)n(C)c1=O
  i	-1.3%	i	-2%	3.9e-09
- COc1ccc(C(=O)NCc2nc3ccccc3[nH]2)cc1OC
  nt	-0.7%	nt	?	nt
- O=C(Cn1cc2c(n1)CCCC2)N1CCc2ccccc21
  nt	1.9%	nt	3%	nt
- CCCCc1ccc(NC(=O)OC)cc1
  nt	-0.4%	nt	-1%	nt
- N#CC[N+]1(Cc2ccccn2)CCCC1
  i	0.2%[11.5 µM]	i	3%[11.4 µM]	1e-09
- CCN(CC)CC(=O)c1c[nH]c2ccccc12
  i	1.0%	i	0%	3e-08
- Nc1nncn1C(=O)c1ccccc1Cl
  i	-1.3%	i	3%	3.2e-08
- Cc1noc(C)c1-c1cc(NCc2cccnc2)ncn1
  i	2.0%	i	1%	1.6e-08
- O=[N+]([O-])c1ccc(NCCO)c(OCCO)c1
  nt	-0.2%	nt	?	nt

Each structure is followed by: Resorufin fluor	AID923	A488 fluor	TSHR agonist	A647 autofl
- Cc1cccc(OCC(=O)Nc2ccc(N3CCN(S(C)(=O)=O)CC3)cc2)c1
  i	-2.7%	i	nt	3.5e-08
- O=C(CSc1nnc2c(n1)[nH]c1ccc(F)cc12)OCc1ccccc1
  i	-0.7%	i	6%	1.9e-08
- O=C1c2ccccc2C(=O)c2c(Nc3ccc4c5c(cccc35)C(=O)c3ccccc3-4)cccc21
  i	-0.2%[11.5 µM]	i	2%[11.4 µM]	1.6e-09
- CCCCc1nnc(SCc2ccc(OCC)cc2)n1N
  nt	2.7%	nt	3%	nt
- CCCc1nc(SC2CCCC2)c2c(=O)n(C)c(=O)n(C)c2n1
  nt	2.4%	nt	1%[11.4 µM]	nt
- CN(C)C(=O)CSc1nnc(CCN)o1
  i	-0.8%	i	9%	7.1e-09
- COc1ccc(-c2nnc(SCC(=O)N(Cc3ccccc3)C(C)(C)C)o2)cc1OC
  i	-0.6%	i	?	2.6e-08
- COc1cc(CNc2ccc(C)c(C)c2)cc(OC)c1OC
  nt	1.8%	nt	?	nt
- CC1=CC(C)(C)N2C(=O)C3(N=C(N)NC(Nc4ccccc4)=N3)c3cc(C)cc1c32 (stereo not drawn)
  i	1.6%	i	1%	2.6e-08
- CCN(CC)S(=O)(=O)c1ccc(NC(=O)CSc2nnc(-c3ccc(F)cc3)o2)cc1
  i	1.4%	i	?	2.6e-09

Each structure is followed by: Resorufin fluor	AID923	A488 fluor	TSHR agonist	A647 autofl
- C=CCn1c(=O)c(C(=O)Nc2ccccc2C(=O)OCC)c(O)c2ccccc21
  i	0.1%	i	?	5.7e-09
- COCC(=O)N(Cc1cc2cc(OC)ccc2[nH]c1=O)c1ccccc1OC
  i	-0.6%	i	?	1e-08
- NC(=O)c1sc2nc3c(c(-c4ccco4)c2c1N)CCC3
  i	4.8%	i	-7%	4.4e-09
- O=S(=O)(Cc1ccccc1Cl)N1CCN(Cc2ccc3c(c2)OCO3)CC1
  i	2.6%	i	?	1.4e-08
- CCOC(=O)c1nc(S(C)(=O)=O)ncc1Cl
  i	1.0%	i	6%	2e-08
- O=C(c1cccs1)N1CCC(c2nc3c(nnn3Cc3ccccc3)c(=O)[nH]2)CC1
  i	-0.3%	i	?	2.7e-08
- CCOC(=O)NC1(C(F)(F)F)C(=O)N(Cc2ccccn2)C2=C1C(=O)CC(C)(C)C2 (stereo not drawn)
  i	-0.9%	i	1%	5.1e-09
- COC1CCCCC1Nc1cccc(SC)c1 (stereo not drawn)
  nt	1.2%	nt	?	nt
- COc1ccc2cc3cc(C(=O)NCCc4ccc(OC)c(OC)c4)oc3nc2c1
  i	2.8%	i	13%	1e-09
- CCOC(=O)Cc1csc(NC(NC(=O)CC)(C(F)(F)F)C(F)(F)F)n1
  nt	-1.6%	nt	2%[11.4 µM]	nt

Compound activity deposited in PubChem BioAssay by National Center for Advancing Translational Sciences (NCATS).

A portion of the library. The share of hits here may be higher or lower than overall.
